Screens: PubChem BioAssay, National Center for Advancing Translational Sciences (NCATS)
GLA inh pH 4.5 = inhibitors of human alpha-galactosidase A at pH 4.5; P06280; purified enzyme, 4-MU-alpha-Gal fluorescence, pH 4.5; activity change, negative = inhibition, % at 105 µM; 230,000 tested, under 10 active; AID 1467; inconclusive = small, poorly fitted or top-dose-only inhibition, or a rising curve; inactive = flat fitted curve, though single readings scatter; no compound was filed as active;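 further: 0% = full activity with enzyme and -100% = basal without enzyme; dose as in the result columns while the protocol names 77 µM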
Rango release inh = prevents RanGTP from dissociating the Rango-importin beta complex; O95149+P62826; Biochemical FRET Rango-importin beta, RanGTP-induced dissociation; Potency, µM (titrated, usually from 46.1 µM), inactives show top-dose activity change, negative = inhibition; 0.071% of 340,000 active; AID 540253; active means falling FRET ratio curve, often poorly fitted, with flat reads before Ran was added; inconclusive means other falling curves, or compound fluorescence or quenching; inactive means flat or rising ratio curve;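 further: potency means the concentration at half of the fitted maximal effect; % of control where 0% means no effect; nearly all actives have a fitted effect of over 45% in size; -100% = wells without RanGTP and RCC1; the record marks most hits as doubtful in a second field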
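Quantitative HTS using a FRET biosensor: 0.1 uM Rango, 0.25 uM importin beta, 0.6 uM Ran, 2 mM GTP, 0.2 uM RCC1 final, PBS with DTT, Tween-20 and BSA. Post-read taken 45 min after Ran addition.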
miR-21 FLuc = raises the signal of a miR-21 reporter; HeLa miR-21 FLuc reporter, luciferase, 48 h; Potency, µM (highest dose often 38.3 µM), for the others: top-dose reporter change, positive = more light; 340,000 tested, under 10 active; active = well fitted rising curve with a large enough effect; inconclusive = small, poorly fitted or top-dose-only effect; inactive = no such curve, though single readings can be large or run the other way;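 further: % of control where 0% means no effect; miR-21 action dims this reporter so a rising signal means less miR-21 action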
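Compounds were titrated across several concentrations (up to approximately 40 uM) and incubated 48 hours with HeLa miR-21-FLuc reporter cells (miR-21 target sequence downstream of FLuc, endogenous miR-21). Readout was firefly luciferase luminescence after lytic detection reagent.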
Rango complex inh = inhibitors of Rango-importin beta complex formation | Q14974 | Rango CFP/YFP FRET sensor + importin beta, 45 min | Potency, µM (doses to about 92.2 µM), for inactives: at the top dose inhibition of complex formation | 0.031% of 340,000 active | AID 540263; active = rising FRET ratio curve, often small or poorly fitted; inconclusive = mostly compound fluorescence or quenching in the first reads; inactive = flat curves in all reads;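 further: potency means the concentration at half of the fitted maximal effect; 0% = DMSO wells and 100% = buffer wells lacking importin beta; nearly all actives have a fitted effect of over 15% in size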
Target sequence (Q14974 whole entry, looked up): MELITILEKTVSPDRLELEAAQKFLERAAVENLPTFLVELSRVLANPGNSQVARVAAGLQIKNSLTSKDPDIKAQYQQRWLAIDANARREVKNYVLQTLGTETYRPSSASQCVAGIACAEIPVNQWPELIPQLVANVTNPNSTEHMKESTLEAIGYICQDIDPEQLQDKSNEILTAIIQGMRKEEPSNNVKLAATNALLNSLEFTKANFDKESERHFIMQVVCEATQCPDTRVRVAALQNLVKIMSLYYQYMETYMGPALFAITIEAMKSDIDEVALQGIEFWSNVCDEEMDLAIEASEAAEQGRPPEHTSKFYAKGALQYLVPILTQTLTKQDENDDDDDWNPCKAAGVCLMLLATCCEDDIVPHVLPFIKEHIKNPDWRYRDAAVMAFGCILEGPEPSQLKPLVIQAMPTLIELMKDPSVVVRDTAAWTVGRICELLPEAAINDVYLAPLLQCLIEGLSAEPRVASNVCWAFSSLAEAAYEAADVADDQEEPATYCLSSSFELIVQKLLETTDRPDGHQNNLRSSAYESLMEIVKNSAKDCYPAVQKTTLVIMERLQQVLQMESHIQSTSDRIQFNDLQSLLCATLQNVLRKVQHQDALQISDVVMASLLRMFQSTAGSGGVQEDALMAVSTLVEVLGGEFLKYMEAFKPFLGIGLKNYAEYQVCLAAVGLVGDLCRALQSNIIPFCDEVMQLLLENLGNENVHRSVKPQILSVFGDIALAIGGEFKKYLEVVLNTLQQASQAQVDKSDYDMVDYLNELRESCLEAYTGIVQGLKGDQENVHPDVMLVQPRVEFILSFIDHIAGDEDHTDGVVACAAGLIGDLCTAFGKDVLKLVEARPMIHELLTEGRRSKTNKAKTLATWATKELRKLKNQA
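FRET biosensor (snurportin 1 IBB flanked by EYFP and cerulean), 50 nM, with compound 5 min, then 0.125 microM importin beta in PBS, 1 mM DTT, 0.02% Tween-20, 0.1% BSA. CFP/YFP ratio read after 45 min at room temperature; pre-read flags interference.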
The depositor's hits bear a star; ? = inconclusive; . = no result given; & = joins results of further samples. Not all compounds are listed. The share of hits here may be higher or lower than overall.

#	molecule	GLA inh pH 4.5	Rango release inh	miR-21 FLuc	Rango complex inh
1	CCOC(=O)Nc1csnn1	2	-3%	0%	0.6%
2	CC(=O)N[C@H]1C[C@@H]1c1ccccc1	-2	6%	-6%	-0.1%
3	COc1ccc(N2CCCC2)c(NC(=O)COc2ccccc2Cl)c1	.	-1%	-6%	0.0%
4	Cc1sc2nc(C)n(/N=C/c3ccccc3O)c(=O)c2c1C	-7	?	-3%	?
5	CN(C)CC(O)COC(c1ccccc1)c1ccccc1 (configuration not stated)	6	16%	2%	0.6%
6	CC1CCC(C(=O)NC(C(=O)NCCc2ccc(S(N)(=O)=O)cc2)C(C)C)CC1 (configuration not stated)	.	12%	-2%	-1.5%
7	O=[N+]([O-])c1ccc(C(O)CNC(=S)Nc2ccccc2)cc1 (configuration not stated)	2	-1%	0%	1.1%
8	Cc1ccc(NC(=O)CCSCCC(=O)Nc2ccc(C)c(C)c2)cc1C	-1	-17%	-2%	-0.6%

The list goes on.
#	molecule	GLA inh pH 4.5	Rango release inh	miR-21 FLuc	Rango complex inh
9	COc1cccc(C2=CC(=O)CCC2)c1OC	.	0%	.	1.0%
10	O=C(CCNc1cc(Cl)cc(Cl)c1)c1cccs1	-9	6%	-9%	-2.8%
11	CCCCC(=O)NC1(C(F)(F)F)NC(=O)N(C)C1=O (configuration not stated)	-1	-9%	2%	6.1%
12	COc1ccc(N2CC(=O)N(c3ccccc3)C2=S)cc1	-9	-5%	-39%	0.9%
13	CC(=O)Nc1sc(NC(=O)c2ccccc2)nc1-c1cccs1	-6	9%	6%	-1.9%
14	O=C(Nc1ccc(S(=O)(=O)N2CCOCC2)cc1)C1CCN(S(=O)(=O)c2ccc(Cl)cc2)CC1	.	-11%	.	-0.2%
15	CCCc1cc(=O)[nH]c(SC(C)C(=O)Nc2ccc3c(c2)OCCO3)n1 (configuration not stated)	.	32%	.	11%
16	CC(C)COc1ccc(C(=O)Nc2ccc(NC(=O)c3ccco3)c(Cl)c2)cc1	5	24%	-7%	-1.1%

(more compounds)
#	molecule	GLA inh pH 4.5	Rango release inh	miR-21 FLuc	Rango complex inh
17	Nc1cccc(S(=O)(=O)Nc2ccc(SC(F)F)cc2)c1	-17	11%	-6%	-1.2%
18	CC(=O)c1cccc(N(CC(=O)Nc2cccnc2)S(C)(=O)=O)c1	2	0%	-5%	-1.0%
19	CCC1=NN2C(=N)/C(=C/c3ccc(OS(=O)(=O)c4ccc(C)cc4)c(OC)c3)C(=O)N=C2S1	.	-23%	-6%	?
20	COc1ccc(C(C)=O)cc1CSc1nncn1-c1ccccc1	-2	1%	2%	-0.6%
21	C=CCSc1nc2sc3c(c2c(=O)n1CC)CCc1ccccc1-3	10	3%	1%	5.0%
22	COc1cc(C)c(S(=O)(=O)NCc2cccnc2)cc1C	.	-1%	5%	?
23	Cc1cc(=O)[nH]c(SCc2nc3ccc([N+](=O)[O-])cc3[nH]2)n1	-2	-6%	-8%	1.5%
24	CCOC(=O)c1cc2c(n(-c3ccccc3)c1=O)CC(C)(C)CC2=O	2	-2%	-3%	6.1%

(further entries)
#	molecule	GLA inh pH 4.5	Rango release inh	miR-21 FLuc	Rango complex inh
25	CC1CN(C(=S)NC(=O)C2CCCCC2)CC(C)O1 (configuration not stated)	-1	8%	-1%	1.4%
26	COc1cc(Br)cc(/C=C/c2ccc3cccc(O)c3n2)c1O	.	-1%	4%	0.1%
27	COc1cc(/C=N\Nc2nc3ccccc3o2)cc(OC)c1OC	-5	3%	-45%	-1.5%
28	COc1ccc(/C=C/C(=O)OCC(=O)NC(C)CCc2ccccc2)cc1 (configuration not stated)	.	-9%	.	2.2%
29	Cc1ccc(C(=O)N(CN2CCCC2=O)c2ccccc2)cc1C	5	-12%	-5%	-1.8%
30	O=C(COC(=O)c1cc(-c2ccccc2)nc2ccccc12)Nc1ccc2c(c1)OCO2	0	5%	-5%	2.9%
31	COc1ccc(-c2[nH]c(-c3ccc(C)cc3)nc2SCC(=O)NC2CCCC2)cc1	8	-11%	21%	-0.4%
32	Cc1cc(C)cc(OCC(=O)NC2CCCc3ccccc32)c1 (configuration not stated)	10	16%	3%	4.2%

Further results.
#	molecule	GLA inh pH 4.5	Rango release inh	miR-21 FLuc	Rango complex inh
33	O=C(Oc1ccccc1-c1nnco1)c1ccccc1	13	-12%	-28%	0.9%
34	N#CC1=C(Nc2ccccc2)SC=C(c2ccc(Br)cc2)N=C1N1CCOCC1	7	-9%	-9%	?
35	Cc1ccc(Cn2ccc(O)c(Cc3ccccc3)c2=O)cc1	5	0%	1%	1.9%
36	COc1cc([C@@H]2CC=C(C(=O)O)[C@H](c3cccc(Cl)c3)N2S(=O)(=O)c2ccc(C)cc2)cc(OC)c1OC	.	8%	.	6.4%
37	Cn1c(=O)c2c(ncn2CCC(=O)N/N=C/c2ccccc2)n(C)c1=O	-14	8%	0%	1.7%
38	NS(=O)(=O)c1ccc(CCNC(=O)C(=O)C2C(=O)Nc3ccccc32)cc1 (configuration not stated)	3	12%	-1%	3.0%
39	CC1C(=O)NN=C1C(=O)N/N=C\C(Br)=C\c1ccccc1 (configuration not stated)	0	2%	21%	3.4%
40	N#Cc1cccc(NC(=O)CNc2cc(S(=O)(=O)N3CCOCC3)ccc2N2CCCC2)c1	.	-17%	.	0.4%

The results go on:
#	molecule	GLA inh pH 4.5	Rango release inh	miR-21 FLuc	Rango complex inh
41	COC(=O)C1=C(C)N(c2ccccc2)/C(=C/c2ccco2)C1=O	-12	-10%	3%	-4.6%
42	Cc1ccc(C(=O)CC(=O)c2cc(Cl)ccc2O)cc1	-10	-8%	-29%	-2.6%
43	Cc1ccc(NC(=O)C(C)OC(=O)CCNS(=O)(=O)c2ccc(C)cc2)cc1 (configuration not stated)	0	-10%	-5%	1.8%
44	c1ccc(CNCCCn2cnc3c(OCc4ccccc4)ncnc32)cc1	.	0%	.	-0.1%
45	Cc1nnc(C)n1/N=C/c1ccc(-c2ccccc2Cl)o1	.	20%	-5%	-7.0%
46	Cc1onc(-c2c(F)cccc2Cl)c1C(=O)N(C)CCc1ccccn1	.	-14%	-1%	2.1%
47	Cc1ccccc1-n1c(=O)cc(N2CCN(C(=O)c3ccco3)CC2)[nH]c1=O	-3	-3%	-3%	3.9%
48	Cc1ccccc1CN1CCCC(C(=O)Nc2ccccc2Oc2cccnc2)C1 (configuration not stated)	.	13%	-4%	-2.9%

Next structures
#	molecule	GLA inh pH 4.5	Rango release inh	miR-21 FLuc	Rango complex inh
49	CC(C)(CN=C1NS(=O)(=O)c2ccccc21)CNC(=O)CN1C(=O)c2ccccc2C1=O	4	-3%	3%	-1.0%
50	O=C(NCCCc1ccccc1)c1cccc(NC(=O)C2CCCCC2)c1	.	16%	.	1.2%
51	CC(OC(=O)C1CCN(S(=O)(=O)c2ccccc2C(F)(F)F)CC1)C(=O)N(C)Cc1ccccc1 (configuration not stated)	.	-7%	6%	-1.6%
52	Cc1ncc(CN2CCC(C(=O)Nc3ccc(Oc4cccnc4)cc3)CC2)cn1	.	-1%	6%	-0.1%
53	O=C(CS(=O)(=O)c1cn(Cc2ccccc2Cl)c2ccccc12)N1CCOCC1	-5	-6%	-5%	-3.0%
54	CCOC(=O)C1CCN(CC(O)COc2ccc(C(C)=O)cc2)CC1 (configuration not stated)	1	29%	0%	-3.6%
55	Cc1ccc(-n2nc(CN3CCOCC3)c(-c3ccccc3)c2N)cc1Cl	-7	0%	2%	-5.0%
56	CC(CCc1ccccc1)NC(=O)CN(C)Cc1ccccc1F (configuration not stated)	-8	13%	-1%	2.3%

Complete entries, quoted from the list. Order of screens: GLA inh pH 4.5 | Rango release inh | miR-21 FLuc | Rango complex inh
O=C(CS(=O)(=O)c1cn(Cc2ccccc2Cl)c2ccccc12)N1CCOCC1 reads -5 | -6% | -5% | -3.0%
CC(C)(CN=C1NS(=O)(=O)c2ccccc21)CNC(=O)CN1C(=O)c2ccccc2C1=O reads 4 | -3% | 3% | -1.0%
CC(OC(=O)C1CCN(S(=O)(=O)c2ccccc2C(F)(F)F)CC1)C(=O)N(C)Cc1ccccc1 (configuration not stated) reads . | -7% | 6% | -1.6%

The listing continues.
#	molecule	GLA inh pH 4.5	Rango release inh	miR-21 FLuc	Rango complex inh
57	O=[N+]([O-])c1ccc(/C=C/c2ccncc2)cc1	0	3%	-44%	-4.1%
58	Cc1cccc(-c2noc(CN(C(=O)/C=C/c3ccccc3Cl)C(C)C)n2)c1	-15	0%	-12%	-1.4%
59	COc1ccc(CCN2C(=O)CSC2=Nc2ccc(C)cc2C)cc1OC	-2	10%	5%	?
60	C=CCSc1n[nH]c(-c2ccccc2)n1	1	6%	-49%	1.0%
61	CC(=O)Nc1cccc(NC(=O)CSc2nnc3ccccn23)c1	.	-4%	.	3.0%
62	COc1cccc(C(=O)COc2ccc3c(C)c(Cc4ccccc4)c(=O)oc3c2C)c1	0	.	-3%	.
63	CCN1CCN(Cc2ccc(NC(=O)c3ccc(C)c(/C=C/c4cnc(Nc5cc(N6CCNCC6)nc(C)n5)cn4)c3)cc2C(F)(F)F)CC1	.	?	?	?
64	CCOc1ccc(NC(=O)N2CCCC2C(=O)NCc2ccco2)cc1 (configuration not stated)	.	13%	-1%	0.6%

Next compounds
#	molecule	GLA inh pH 4.5	Rango release inh	miR-21 FLuc	Rango complex inh
65	Cc1nn(CC(=O)OCC(=O)Nc2c(C(C)C)cccc2C(C)C)c(C)c1[N+](=O)[O-]	3	-3%	0%	0.6%
66	Cc1ccc(NC(=O)c2cc(F)c(F)cc2Cl)nc1	4	-8%	-43%	-0.6%
67	COc1ccc(-c2nn(-c3ccccc3)cc2/C=N/Nc2cccc(C(=O)O)c2)cc1	0	0%	-46%	-1.7%
68	Cc1c(NC(=S)N2CCN(c3ccc(F)cc3)CC2)c(=O)n(-c2ccccc2)n1C	4	-2%	-1%	-1.1%
69	CC(=O)c1sc2nc(C)c3c(c2c1N)CCCC3	-2	?	-9%	?
70	Cc1cccc(-c2nc3sc(C)cc3c(=O)o2)c1	1	6%	-1%	-0.9%
71	CC(=O)[C@H]1[C@H](CCc2ccccc2)NC(=O)N(Cc2ccccc2)[C@@H]1C	4&3	-10%	18%	3.8%
72	CC1(C)CC(=O)c2cc(C(=O)O)c(=O)n(-c3ccccc3)c2C1	6	-5%	0%	0.0%

Later entries:
#	molecule	GLA inh pH 4.5	Rango release inh	miR-21 FLuc	Rango complex inh
73	COc1ccccc1/C=N/NC(=O)c1ccc(-c2ccccc2)cc1	-2	-1%	-2%	-2.3%
74	O=C(CNC(=S)N(CCCN1CCOCC1)Cc1cccs1)NCCCN1CCOCC1	12	9%	-13%	1.9%
75	OCC(CO)(CO)NCC(O)CN1c2ccccc2Sc2ccccc21 (configuration not stated)	.	13%	-1%	-1.1%
76	CCOC(=O)CN1C(=O)C(O)(c2c(C)[nH]c3ccccc23)c2ccccc21 (configuration not stated)	-4	-3%	1%	0.9%
77	O=C(Nc1cccc2ccccc12)N(c1ccccc1)c1ccccc1	.	14%	.	0.7%
78	CCCc1nc2cc3c(cc2[nH]1)n(C)c(=O)n3C	.	-11%	-2%	-1.3%
79	CCC(=O)NC(c1cccs1)c1cc(Cl)c2cccnc2c1O (configuration not stated)	-21	-22%	-3%	-1.9%
80	CC1CN(Cc2csc(-c3ccc(Cl)cc3)n2)CC(C)O1 (configuration not stated)	9	-3%	-29%	0.2%

Following part.
#	molecule	GLA inh pH 4.5	Rango release inh	miR-21 FLuc	Rango complex inh
81	Cc1cc(C)c2nc(N3CCCC(C(=O)NCCCN4CCOCC4)C3)sc2c1 (configuration not stated)	6	12%	-33%	2.0%
82	CC(NC(=O)C(=O)NN=C1CCC(C(C)(C)C)CC1)c1ccccc1 (configuration not stated)	9	-3%	-7%	0.3%
83	Cc1ccc(C(=O)N/N=C\C=C\c2ccccc2[N+](=O)[O-])cn1	-11	-6%	2%	-3.9%
84	CC1c2ccsc2CCN1C(=O)NC(=O)c1ccc(Cl)cc1 (configuration not stated)	?	-4%	-20%	-0.8%
85	CC(C)C[C@@H](CN1CCC[C@@H]1CN1C(=O)C(=O)NC[C@@H]1Cc1ccccc1)N1C[C@H](Cc2ccc(O)cc2)N(CC2CCCCCC2)C(=O)C1=O	.	25%	.	3.0%
